Screens from PubChem BioAssay.
Cruzain inh noDet: cruzain (T. cruzi) inhibition without detergent | P25779 | purified cruzain, Z-FR-AMC fluorescence, no detergent | Potency, µM, for inactives: max response, negative = inhibition, most hits filed as inhibitors | 200,000 tested, 2.3% active;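 further: plate controls were enzyme without inhibitor for no effect and buffer without enzyme for full effect; nearly all actives have a fitted effect of over 40% in size; top concentration of the series not given in the record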
Target sequence (P25779 123-467 limits assumed): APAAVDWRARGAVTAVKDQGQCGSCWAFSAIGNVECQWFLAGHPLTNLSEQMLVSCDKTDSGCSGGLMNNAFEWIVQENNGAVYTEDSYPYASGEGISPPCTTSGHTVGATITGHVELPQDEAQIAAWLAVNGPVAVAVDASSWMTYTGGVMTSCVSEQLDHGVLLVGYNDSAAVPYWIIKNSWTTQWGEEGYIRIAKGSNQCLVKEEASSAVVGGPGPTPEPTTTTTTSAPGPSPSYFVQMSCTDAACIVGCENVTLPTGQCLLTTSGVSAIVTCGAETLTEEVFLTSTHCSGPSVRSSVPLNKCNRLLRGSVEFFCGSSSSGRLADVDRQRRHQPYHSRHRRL
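Detergent-free condition (0.00005% Triton X-100) in acetate buffer pH 5.5 with DTT. 1.5 nM enzyme and compound were pre-mixed 15 min, then 2 uM Z-FR-AMC substrate added; reaction progress from fluorescence change between first and third reads (60 s).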
Marburg entry inh: Marburg virus entry inhibition | 300,000 tested, 1.8% active | Potency, µM (top dose mostly 37.8 µM), for the others: at the top dose activity change, negative = inhibition, hits mostly inhibitors | Marburg virus pseudotyped entry inhibition, cell reporter; control for the full effect not named in the record; about a third of the inactives were read at about 46 µM | AID 540276; active = well fitted inhibition curve with a large enough effect; inconclusive = small, poorly fitted or top-dose-only effect, or effect the other way; inactive = flat fitted curve, though single readings scatter; tested in HEK293 cells; about a fifth of its hits are not listed in these tables; further: on the % scale 0 is the no-effect control and ±100 the full control effect; luciferase read-out
LASV entry inh: Lassa virus entry inhibition. Lassa virus pseudotype entry inhibition, cell reporter; control for the full effect not named in the record. Potency, µM (top dose mostly 37.9 µM), without a hit: at the top dose activity change, negative = inhibition, most hits filed as inhibitors. 300,000 tested, 1.2% active. AID 540256; active means well fitted inhibition curve with a large enough effect; inconclusive means small, poorly fitted or top-dose-only effect, or effect the other way; inactive means flat fitted curve, though single readings scatter; tested in HEK293 cells; further: on the % scale 0 is the no-effect control and ±100 the full control effect; nearly all actives have a fitted effect of over 50% in size; luciferase read-out
RE007 growth inh: less growth of the S. pombe RE007 Vpr strain; Potency, µM (top dose mostly 92.2 µM), for the others: top-dose activity change, negative = less growth; 360,000 tested, 0.21% active; AID 651644; S. pombe RE007 Vpr strain, BacTiter-Glo ATP luminescence, 24 h; control for the full effect not named in the record; active = well fitted falling curve with a large enough effect; inconclusive = small, poorly fitted or top-dose-only effect; inactive = no such curve, though single readings can be large or run the other way;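 further: on the % scale 0 is the no-effect control and ±100 the full control effect; nearly all actives have a fitted effect of over 50% in size; the assay follows cell death caused by Vpr and the record does not say whether a fall means rescue or toxicity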
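Fission yeast strain RE007, carrying one chromosomally integrated HIV-1 vpr copy, was seeded at OD 0.01 in PMG+AL medium with 23 nL pinned compound. After 24 h at 30 °C and 99% humidity, viability was read by BacTiter-Glo luminescence.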
NS1 inh: influenza NS1 inhibition. 270,000 tested, 0.4% active. S. cerevisiae slowed by influenza A NS1, growth recovery by OD600. Potency, µM (series often up to 46.1 µM), for the others: at the highest dose activity, positive = more growth; active means well fitted rising curve with a large enough effect; inconclusive means small, poorly fitted or top-dose-only effect; inactive means no such curve, though single readings can be large or run the other way; further: nearly all actives have a fitted effect of over 50% in size
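In this qHTS, NS1 from influenza A is expressed in budding yeast, where it slows growth. Cells are switched from glucose to 2% galactose medium (pH 6.0, -URA), treated with compound, and growth recovery is read at OD600.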
2A StopGo: FMDV 2A StopGo reporter, luciferase signal; 410,000 tested, 1.2% active; Potency, µM (highest dose often 57.9 µM), for the others: top-dose signal change, negative = less light; human cells with a luciferase reporter of 2A StopGo recoding; control for the full effect not named in the record; active = well fitted falling curve with a large enough effect; inconclusive = small, poorly fitted or top-dose-only effect; inactive = no such curve, though single readings can be large or run the other way; tested in HEK293T cells; further: on the % scale 0 is the no-effect control and ±100 the full control effect; nearly all actives have a fitted effect of over 45% in size; luciferase light after 4 h
SARS PLpro yeast: SARS-CoV PLP inhibition in yeast; Potency, µM (series often up to 32.9 µM), for inactives: at the top dose activity, positive = growth rescue; S. cerevisiae expressing SARS-CoV PLpro, growth rescue; control for the full effect not named in the record; 330,000 tested, 0.19% active; AID 485353; active means well fitted rising curve with a large enough effect; inconclusive means small, poorly fitted or top-dose-only effect; inactive means no such curve, though single readings can be large or run the other way; further: 0% is about no effect; nearly all actives have a fitted effect of over 55% in size; growth read by luminescence after 48 h
Cruzain Triton: cruzain (T. cruzi) inhibition with detergent. P25779. 200,000 tested, 0.43% active. Potency, µM, inactives show max response, negative = inhibition, hits mostly inhibitors. purified cruzain, Z-FR-AMC fluorescence, 0.01% Triton. AID 1478;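 further: plate controls were neutral wells for no effect and buffer without enzyme for full effect; nearly all actives have a fitted effect of over 40% in size; top concentration of the series not given in the record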
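In this qHTS format, compounds are incubated with 1.5 nM cruzain for 15 min at room temperature before 2 uM Z-FR-AMC is added. Release of AMC is followed at 360/450 nm, and progress is taken as the 60 s fluorescence difference.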
Starred values were filed as active, the others as inactive; ? = inconclusive; . = no result given; & = joins results of further samples; [ ] = remark or other dose. Unless noted, the call rests on the fitted dose curve; in most records, active means well fitted curve in the direction sought with a large enough effect; inconclusive means small, poorly fitted or top-dose-only effect, or another doubt; inactive means no such curve, though single readings can be large; an effect the other way counts as inactive or inconclusive. Potency means the concentration at half of the fitted maximal effect.

item	structure	Cruzain inh noDet	Marburg entry inh	LASV entry inh	RE007 growth inh	NS1 inh	2A StopGo	SARS PLpro yeast	Cruzain Triton
1	CC(C)C(c1nnnn1Cc1ccc2c(c1)OCO2)N1CCN(C)CC1 (centres undefined)	-7%	-11%	-5%	8%	1%	9%	-3%	4.3%
2	O=c1[nH]c(Nc2ccc3c(c2)OCCO3)nnc1Cc1ccccc1	.	22%[46.1 µM]	-18%	0%	.	-6%	-1%	.
3	CCc1ccccc1NC(=O)c1cc(-c2ccc(Cl)s2)nc2ccccc12	-16%	?	2%[46.1 µM]	.	.	-16%	.	-0.7%
4	Fc1ccc(-[n+]2nc(Nc3ccccc3)sc2-c2c(Cl)cccc2Cl)cc1	.	.	.	-8%	-1%	?	-5%	.
5	COc1ccc(S(=O)(=O)n2cccc2)c(OC)c1	.	-3%	15%	-13%	0%	-16%	-1%	.
6	CCc1ccc(CNC(=O)c2ccc(OC3CCN(C(=O)COC)CC3)cc2)nc1	.	6%	-24%	-12%	-1%	19%	-2%	.
7	COc1ccc(NC(=O)Cn2cccc2)cc1Cl	?	7%	54%[14.3 µM]	-5%	-14%	-1%	3%	0.6%
8	O=[N+]([O-])c1ccccc1Oc1ccccc1Cl	-2%	9%[46.1 µM]	-6%	-20%	?	12%	5%	-4.0%
9	CCNC(=O)/C(=C/c1ccc2c(c1)OCO2)NC(=O)c1ccc(Br)cc1	3%	4%	-2%	0%	18%	-10%	1%	-1.8%
10	Oc1ccc(/C=N/NC(=S)NCCN2CCOCC2)c(O)c1	.	5%	?	-14%	.	-13%	-2%	.
11	CCCc1cc(C(=O)NCCc2ccccc2)no1	2%	.	.	-30%	-18%	46%[activator]	-7%	0.0%
12	C/C(=N\O)c1ccc(Cl)cc1Cl	.	?	-15%	-8%	-2%	-12%	0%	.
13	O=C(Nc1ccc2c(c1)OCO2)N1CCC(CO)(CC2CCCCO2)CC1 (centres undefined)	.	?	14%	-1%	2%	19%	-2%	.
14	COc1ccc2nc(NN=C(C)c3ccccn3)cc(C)c2c1	.	?	?	?	.	-15%	.	.
15	CC(C)Oc1cccc(-c2nnc(SCC(=O)Nc3ccc4c(c3)OCCO4)n2N)c1	10%	-1%	-6%	-6%	0%	9%	-1%	0.8%
16	CCn1ccnc1CN1CCc2c([nH]c3ccccc23)C1C1CCCCC1 (centres undefined)	.	15%[46.1 µM]	-2%	10%	-5%	1%	-1%	.
17	Cc1ccc(C)c(N2CCN(C(=O)C3CCN(c4nnc(N5CCCC5=O)s4)CC3)CC2)c1	?	?	?	2%	-73%	25µM*	6%	-4.6%
18	Cn1c2c(c(=O)[nH]c1=O)C(c1cccc(O)c1)C1=C(N2)c2ccccc2C1=O (centres undefined)	.	?	?	-14%	3%	?	0%	.
19	OCC1(Cc2cccc(Cl)c2)CCCN(Cc2ccc(F)c(F)c2)C1 (centres undefined)	.	-28%	-4%	-19%	-15%	-24%	6%	.
20	Cc1cc(/C([O-])=C(/C(=S)Nc2ccccc2)[n+]2ccccc2)c(C)n1-c1ccccc1	-21%	13%	15%	-9%	17%	?	-6%	-5.4%
21	COc1ccc(N2CCN(C(=O)c3ccc(C)cc3Cl)CC2)cc1	-13%	3%	4%	4%	-9%	.	.	-3.1%
22	Nc1ccc(Oc2ccc3nc(-c4ccccc4)c(-c4ccccc4)nc3c2)cc1	?	?	?	-18%	-93%	?	2%	4.4%
23	Cc1nn(CC2CC2)c(=O)n1-c1ccc(Cl)cc1	.	1%[46.1 µM]	1%	-11%	-1%	-2%	0%	.
24	O=[N+]([O-])c1ccc(CSC2=NCCS2)cc1	.	2%[46.1 µM]	2%[46.1 µM]	0%	19%	19%	2%	.
25	Clc1cccc(N2CCN(c3nc4ccccc4c4nc(-c5cccnc5)nn34)CC2)c1	-26%	3%[46.1 µM]	.	.	.	-22%	.	-0.2%
26	COC(=O)C(C(=O)N1CCN(C)CC1)C1CCCCCC1 (centres undefined)	-28%	2%	1%	4%	5%	0%	-7%	-4.1%
27	COc1ccc(CN(C#N)c2nc(C)cc(C)n2)cc1	.	.	.	2%	9%	12%	-3%	.
28	CCOc1nc(NC(=O)NS(=O)(=O)Oc2ccccc2Cl)nc(-c2ccccc2)n1	-1%&-2%	4%[46.1 µM]	15%[46.1 µM]	-18%	0%	24%&43%	8%	0.7%&2.3%
29	COC(=O)/C=C1/SC(=NC(=O)c2ccc(Cl)cc2)NC1=O	.	4%[46.1 µM]	5%	-8%	.	?	.	.
30	Nc1nc2c(nc(N3CCCCC3)n2[C@@H]2O[C@H](CO)[C@@H](O)[C@H]2O)c(=O)[nH]1	.	5%[46.1 µM]	17%[46.1 µM]	-10%	4%	20%	2%	.
31	Cc1cc(N2CCOCC2)nc2ccc(NC(=O)CCC(=O)N3CCC(C)CC3)cc12	21%	18%	17%	-8%	5.6µM*	33%[activator]	-1%	-0.7%
32	CN(c1ccc(C(=O)NCC2CCCO2)cc1)S(C)(=O)=O (centres undefined)	-13%	8%	29%	10%	4%	.	1%	4.4%
33	Cc1cc(C(=O)Nc2ncn[nH]2)ccc1[N+](=O)[O-]	-2%	10%&10%	18%	1%	7%	-10%	-5%	-4.4%
34	Cn1c(C(=O)OC(C(=O)NC2CCCCC2)c2ccccn2)cc2sccc21 (centres undefined)	-4%	-18%	0%	7%	10%	8%	0%	0.1%
35	O=C(c1ccc(F)cc1)N(NC(=O)C(O)(c1ccccc1)c1ccccc1)c1ccccc1	-15%	-42%	-13%	3%	0%	-22%	4%	-0.2%
36	Cc1cc(NC(=O)Cc2ccccc2)no1	0%	33%	6%	2%	-9%	-10%	13%	-0.5%
37	Cc1nc(CS(=O)(=O)c2ccccn2)sc1C(=O)NNC(=O)c1ccc(Cl)cc1	.	-11%	8%	-9%	-2%	-4%	2%	.
38	Cc1ccc(S(=O)(=O)N/N=C/c2ccc(O)c(O)c2)cc1[N+](=O)[O-]	.	-30%[46.1 µM]	-14%[46.1 µM]	13%	-3%	47%[activator]	-1%	.
39	O=S(=O)(c1cccs1)N1CCN(c2ccccn2)CC1	-13%	7%	1%	-1%	-4%	-19%	11%	-1.9%
40	COc1cc(/C=N/N(C)C2=NS(=O)(=O)c3ccccc32)cc(OC)c1OC	.	.	.	-6%	2%	-28%	1%	.
41	O=C(CN1C(=O)CSC1=O)Nc1ccc(N2CCOCC2)cc1	-5%	?	10%	5%	2%	3%	3%	1.2%
42	CCOC(=O)c1c(N)sn(-c2ccccc2C)c1=S	-12%	2%	-7%	-13%	-85%	-28%	-19%	-4.2%
43	Cc1ccc(Cl)cc1-n1ncc2c(NCCc3ccccc3)ncnc21	0%	.	-16%[46.1 µM]	.	.	0%	.	-5.4%
44	CCOc1ccccc1-n1nnnc1SCC(=O)NC(=O)Cc1ccccc1	.	-14%	2%	13%	.	-24%	-4%	.
45	CCCCNC(=O)COC(=O)CCC(=O)c1ccc(F)cc1	-5%	3%	23%	3%	0%	11%	-1%	-1.7%
46	O=C(Cc1ccc(Cl)cc1)Nc1cccc(S(=O)(=O)Nc2ccccc2F)c1	6%	-27%	?	0%	6%	-5%	-2%	-5.1%
47	Cc1cccc(-n2c(O)c(C=NCCCN3CCOCC3)c(=O)[nH]c2=O)c1C	0%	3%	12%	24%	-12%	0%	7%	0.0%
48	Cc1ccccc1OCCSc1nnc(-c2cccnc2)n1N	-4%	.	.	0%	7%	-12%	1%	-0.2%
49	CCOC(=O)CS(=O)(=O)c1nc(-c2ccc(F)cc2)cc(C(F)(F)F)n1	?	?	?	?	-69%	?	-29%	-7.0%
50	NC(=O)NCc1cccnc1	.	1%[46.1 µM]	0%	-12%	1%	34%	0%	.
51	O=C(CN1C(=O)C2(SCC(=O)N2c2ccc(F)cc2)c2ccccc21)NCCc1ccccc1 (centres undefined)	5%	.	-21%[46.1 µM]	.	.	17%	.	-3.5%
52	CCOC(=O)c1c(C)[nH]c(C(=O)COC(=O)C23CC4CC(CC(Cl)(C4)C2)C3)c1C	-2%	0%	?	0%	2%	-23%	9%	-3.6%
53	CCC(C)c1ccc(OCC(=O)Nc2ccc3[nH]c(=O)[nH]c3c2)cc1 (centres undefined)	25µM*	?	-8%	-15%	18%	-3%	6%	-1.7%

Part of the list above in order of molar mass, rising.
item	structure	Cruzain inh noDet	Marburg entry inh	LASV entry inh	RE007 growth inh	NS1 inh	2A StopGo	SARS PLpro yeast	Cruzain Triton
7	COc1ccc(NC(=O)Cn2cccc2)cc1Cl	?	7%	54%[14.3 µM]	-5%	-14%	-1%	3%	0.6%
26	COC(=O)C(C(=O)N1CCN(C)CC1)C1CCCCCC1 (centres undefined)	-28%	2%	1%	4%	5%	0%	-7%	-4.1%
53	CCC(C)c1ccc(OCC(=O)Nc2ccc3[nH]c(=O)[nH]c3c2)cc1 (centres undefined)	25µM*	?	-8%	-15%	18%	-3%	6%	-1.7%
31	Cc1cc(N2CCOCC2)nc2ccc(NC(=O)CCC(=O)N3CCC(C)CC3)cc12	21%	18%	17%	-8%	5.6µM*	33%[activator]	-1%	-0.7%

Whole records, quoted from the list. Order of screens: Cruzain inh noDet, Marburg entry inh, LASV entry inh, RE007 growth inh, NS1 inh, 2A StopGo, SARS PLpro yeast, Cruzain Triton
Listed for Cn1c(C(=O)OC(C(=O)NC2CCCCC2)c2ccccn2)cc2sccc21 (centres undefined) = -4%, -18%, 0%, 7%, 10%, 8%, 0%, 0.1%
Listed for NC(=O)NCc1cccnc1 = ., 1%[46.1 µM], 0%, -12%, 1%, 34%, 0%, .
